Calb FLC – affects C. albicans growth with fluconazole; C. albicans CaCi-2 (fluconazole-resistant clinical isolate) + fluconazole, Alamar Blue growth, 48 h; growth inhibition, % (no concentration beside the values); 300,000 tested, 0.57% active; AID 1979;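 active means most replicates above 75%; inconclusive means exactly half above 75%; inactive means most below 75%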;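 further: all wells also contain fluconazole at 8 µg/ml as a sub-toxic cotreatment; 0% = median of DMSO wells and 100% = median of geldanamycin control wells; wells of about 8 µL received 7.5 nL stock; the first replicate is given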
T cruzi repl – T. cruzi replication inhibition | T. cruzi beta-gal in NIH3T3, luminescence, 90 h | inhibition, % (no concentration beside the values) | 300,000 tested, 1.4% active | AID 1885;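 active means mean inhibition across valid replicates above about 55%, limit read from the data; inconclusive means mean below that limit but half or more replicates reach it; inactive means mean below it, under half of replicates reach it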;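 further: signal also drops with host cell toxicity which is not excluded here; 0% = plate median of DMSO wells and 100% = zero luminescence signal; higher percent means less beta-gal luminescence so fewer parasites; stock transfer was 50 nL into about 50 µL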
Vif A3G – HIV-1 Vif–A3G interaction blockers – biochemical, TR-FRET, GST-Vif 1-94, biotin-A3G peptide, dose response retest, primary screen (AID 1117319); one-dose inhibition, %; IC50 in µM for titrated hits; TR-FRET GST-Vif / biotin-A3G peptide binding; higher % means a stronger effect; test concentration not given here; strong numbers were not always called active; 260,000 tested, 0.57% active;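 active means above the screen mean plus three standard deviations and confirmed in dose response; inconclusive means results disagree or hit not tested in dose response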;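 further: Vif residues 1-94 fused to GST binding biotinylated APOBEC3G peptide 110-148; 0% = full assay without inhibitor and 100% = GST in place of GST-Vif; retest series ran down from 100 µM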
AF4-AF9 inh – blocks AF4 peptide binding to human AF9 | P42568 | AlphaScreen, biotin-AF4 peptide binding to FLAG-AF9 | inhibition, % at 10 µM | 350,000 tested, 0.47% active | AID 651704;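 active means every replicate reaching a set inhibition limit, whatever the replicate mean, cut at about 25% in these data; inconclusive means mean inhibition reaches that limit but some replicates miss it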;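 further: 0% = plate neutral control median and 100% = total signal loss; the record names both 10 and 1 µM as test concentration; the first replicate is given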
Target sequence (P42568 whole entry, looked up): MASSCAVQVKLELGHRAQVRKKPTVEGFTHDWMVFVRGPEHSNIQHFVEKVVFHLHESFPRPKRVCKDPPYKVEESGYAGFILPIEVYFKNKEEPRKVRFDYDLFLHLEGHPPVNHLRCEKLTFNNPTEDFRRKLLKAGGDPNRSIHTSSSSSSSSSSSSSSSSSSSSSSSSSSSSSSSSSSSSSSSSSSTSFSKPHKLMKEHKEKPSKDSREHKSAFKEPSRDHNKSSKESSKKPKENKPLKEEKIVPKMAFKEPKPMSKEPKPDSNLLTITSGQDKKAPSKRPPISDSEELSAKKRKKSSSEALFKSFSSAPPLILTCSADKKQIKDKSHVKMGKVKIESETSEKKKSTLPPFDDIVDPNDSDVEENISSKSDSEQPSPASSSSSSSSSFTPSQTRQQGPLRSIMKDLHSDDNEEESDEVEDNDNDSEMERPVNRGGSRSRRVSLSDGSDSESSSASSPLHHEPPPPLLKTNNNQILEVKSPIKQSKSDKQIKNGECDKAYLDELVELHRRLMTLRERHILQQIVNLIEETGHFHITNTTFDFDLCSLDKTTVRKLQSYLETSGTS
A1 inh – inhibitors of the anti-apoptotic protein A1, read as caspase activation | MEF A1-2A-BIM cells, Caspase-Glo 3/7 luminescence, 3 h; percent of clofoctol response, vehicle zero | 330,000 tested, 0.066% active | caspase activation, % (concentration not given with the values);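 active means over half of replicate activation scores above 10%, or exactly half above 10 with the replicate mean above 10; inconclusive means replicate mean below 10 yet half the replicates above 10; inactive means over half of replicates below 10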;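 further: wells of about 30 µL received 50 nL stock; many hits fall short of the cut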
rRNA inh HTS – inhibits bacterial ribosomal RNA function over humanized ribosomes | E. coli WT GFP vs humanized-ribosome RFP mutants, fluorescence, 24 h; hits give low values; DMSO median 0, no signal -100 | GFP signal change (wild-type ribosome), % (test concentration not listed) | 350,000 tested, 1.6% active | AID 720706;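 active means significant combined selectivity score with lowered wild-type GFP, culture density cut under 30%, mutant RFP and density less affected; inactive means any of these conditions unmet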; further: one replicate is shown; some compounds called inactive have numbers as strong as hits
RanGTP-Impb inh – inhibitors of RanGTP-importin-beta interaction, primary screen, biochemical, FRET, CFP-Ran, YFP-importin-beta, homogeneous. cell-free CFP-Ran/YFP-importin-beta FRET ratio. inhibition, % (concentration not given with the values). 300,000 tested, 1.1% active. AID 2216;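 active means most replicates above 15%; inconclusive means exactly half above 15%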;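 further: 0% = DMSO wells and 100% = Ran loaded with GDP instead of GTP; wells of about 40 µL received 100 nL stock; the first replicate is given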
Beta apoptosis – blocks beta cell apoptosis | INS-1E cytokine-induced death, ATP luminescence, 48 h; percent of positive-control rescue, neutral wells zero | protection from apoptosis, % (test concentration not listed) | 300,000 tested, 0.8% active;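 active means all replicates at 75% or more, or half of them and the mean; inconclusive means half reach 75% but not the mean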;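 further: 0% = cytokine-treated negative control wells and 100% = positive control rescue; higher means more ATP so stronger rescue from cytokine killing; wells of about 40 µL received 100 nL stock; the first replicate is given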
rRNA inh HTS OD600 – also measured in rRNA inh HTS; calls as there; OD600 change, %; measured here: OD600 growth;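 optical density of the mix in the first replicate; 0 = DMSO median and -100 = no signal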
rRNA inh HTS RFP – recorded beside rRNA inh HTS, whose call it bears; RFP signal change, %; measured here: RFP humanized mutant strains;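 first replicate; 0 = DMSO median and -100 = no signal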
* marks the source's active call; other numbers are inactive results; ? = inconclusive; nt = not tested or not shown; & = joins results of further samples. These rows are one share of the data. The share of hits here may be higher or lower than overall.

SMILES | Calb FLC | T cruzi repl | Vif A3G | AF4-AF9 inh | A1 inh | rRNA inh HTS | rRNA inh HTS OD600 | rRNA inh HTS RFP | RanGTP-Impb inh | Beta apoptosis
COC(=O)C1=C(C)N=C2SC(C)C(=O)N2C1/C=C/c1ccccc1OC (centres undefined) | -8 | 7 | -5% | nt | 0.7 | nt | nt | nt | -13 | 1
COC(=O)c1ccc(NC(=O)Nc2ccccc2C)cc1 | 18 | -6 | -6% | -0.4 | -6.1 | -17 | -12 | -3.5 | -1.8 | -2
O=C(Cn1cc2c(n1)CCCCC2)N1CCc2ccccc21 | -8 | 5 | 0% | -2.8 | 1.1 | 17 | 14 | 2.2 | -1.4 | -2
Cc1nnc(N2CCC(C(=O)N3CCCCCC3)CC2)c2nn(-c3ccc(Cl)cc3)c(C)c12 | -1 | -20 | nt | 0.9 | -0.2 | -4 | -2 | 4.8 | -0.9 | 4
CCC(=O)Nc1c2c(nn1-c1ccc(F)cc1)CS(=O)(=O)C2 | 8 | -10 | -8% | 0.6 | 0.8 | 12 | 18 | 2.5 | -2.9 | -4
O=S1(=O)CC(O)C(NCCO)C1 (centres undefined) | 13 | 2 | -10% | -27 | 0.2 | 16 | 6 | 3.0 | -1.3 | 0
COc1ccc(CN2C(=O)c3cccnc3C2=O)cc1S(=O)(=O)N1CC(C)CC(C)C1 (centres undefined) | -2 | -7 | nt | -3.6 | -0.5 | 10 | 11 | 0.3 | -0.9 | -3
CC(=O)COc1ccc2cc(-c3ccccc3)c(=O)oc2c1 | 5 | -13 | -2% | -3.8 | -5.3 | 13 | 13 | 0.4 | 7.1 | 7
CSc1cccc(NC(=O)CN(Cc2ccc(Cl)cc2)S(C)(=O)=O)c1 | 5 | 2 | 3% | nt | -0.8 | nt | nt | nt | -1.7 | 3
Cc1cc(C)cc(OCCNC(=O)c2ccc(Br)cc2)c1 | -6 | 13 | 0% | -2.6 | -0.1 | 4 | 11 | 2.1 | -1.4 | -5
Cc1ccc(C(=O)Oc2oc(-c3ccco3)nc2C=Nc2ccc(Cl)cc2)cc1 | 3 | -13 | -1% | nt | 0.5 | nt | nt | nt | 0.5 | -1
COc1ccc(CC(=O)N2CCc3ccccc32)cc1 | 8 | -1 | -10% | nt | -0.3 | nt | nt | nt | ? | 0
CCn1c(C(C)C)n[nH]c1=S | 4 | -7 | 7% | -8.2 | 0.0 | 15 | 7 | -3.3 | 1.6 | -8
O=C(NC(Cc1c[nH]c2ccccc12)C(=O)O)c1ccc(F)cc1 (centres undefined) | 2 | -9 | 1% | -11 | ? | 2 | 1 | 1.4 | -3.1 | -5
Cc1cnc(NC2=NCCC2)s1 | 0 | -2 | -4% | -0.3 | -0.4 | 3 | 6 | -1.9 | -3.7 | -3
CC(=Nc1ccccc1)C1=C(O)CSC1=O | -10 | -14 | ? | nt | 0.4 | nt | nt | nt | -2.0 | 2
CCOc1cccc(/C=C/C(=O)O)c1 | 10 | -8 | -1% | 47* | -2.0 | 1 | 2 | -1.6 | -1.0 | 0
Cc1ccc(S(=O)(=O)N2C3C=CC(C3)C2C(=O)O)cc1 (centres undefined) | 9 | -3 | 1% | -1.5 | 0.3 | 0 | -9 | 12 | ? | -9
CCN1CCN(Cc2nc3c(c(=O)n(C)c(=O)n3C)n2Cc2cccc3ccccc23)CC1 | -14 | -3 | 6% | 6.6 | 0.4 | 15 | 8 | 0.6 | 1.2 | 2
O=C(c1ccc(S(=O)(=O)N2CCCCCC2)cc1)N1CCC(CN2C(=O)c3cccc4cccc(c34)C2=O)CC1 | 3 | 45 | -15%&-26% | nt | -0.1 | nt | nt | nt | -0.2 | -1
O=S1(=O)CCOC[C@H](CC2CCCCC2)N1Cc1cccc(C(F)(F)F)c1 | -4 | 33 | nt | -0.6 | -0.4 | -12 | -22 | 9.5 | 0.3 | 9
O=C1c2ccccc2NC(c2cccc([N+](=O)[O-])c2)N1O (centres undefined) | -3 | -9 | 2% | 28* | 0.1 | -9 | 2 | -2.8 | 2.3 | -3
Cc1ccc(C(=O)NCC(C)(C)O)cc1 | ? | -9 | ? | nt | -0.1 | nt | nt | nt | -1.5 | -3
CCOc1cccc(OCCNC2CCCC2)c1 | 4 | -20 | 10% | 0.3 | 0.3 | 22 | 16 | 1.6 | -1.0 | 1
COc1cccc(N2CC(O)=C(c3nc4ccccc4c(=O)[nH]3)C2=N)c1 | 32 | -16 | -2% | nt | 0.4 | nt | nt | nt | 1.9 | 27
Cc1ccccc1C(=O)N1CCC(C(=O)Nc2ccc(F)cc2)CC1 | 7 | 2 | 18% | nt | -1.7 | nt | nt | nt | -0.4 | -1
O=C(COC(=O)/C=C/c1cccc(Cl)c1)NCCc1ccc(Cl)cc1Cl | 3 | -8 | nt | nt | -0.3 | nt | nt | nt | 4.8 | -5
O=C(Nc1ccc(S(=O)(=O)Nc2nccs2)cc1)c1ccc(N2C(=O)c3ccccc3C2=O)cc1 | 4 | -10 | nt | -7.6 | 0.4 | 1 | 8 | -1.4 | 1.7 | -3
CCOc1ncccc1C(=O)N1CCN(S(=O)(=O)c2cccs2)CC1 | nt | nt | -4% | 0.4 | -1.2 | 13 | 5 | 1.2 | nt | -4
COc1ccc(C2C3=C(CCCC3=O)NC3=C2C(=O)c2ccccc23)cc1 (centres undefined) | 24 | 19 | -2% | 20 | -0.3 | -16 | -9 | -2.2 | 1.6 | -12
CC(C)CC(=O)N=C1SC2CS(=O)(=O)CC2N1CCc1ccccc1 (centres undefined) | 9 | -2 | 3% | nt | 0.2 | nt | nt | nt | 5.8 | 2
O=C(CCNc1n[nH]c(=O)[nH]c1=O)N/N=C\c1cccc(OCc2ccccc2)c1 | 13 | -6 | -8% | 1.0 | -0.6 | 8 | 1 | -3.6 | -1.8 | 7
CC(=O)Oc1ccc2nc(/C=C/c3ccc(C=O)cc3)oc(=O)c2c1 | -8 | -2 | nt | 2.1 | -0.3 | 4 | 11 | -0.8 | -1.2 | 0
COc1cccc(C(=O)NCCN2CCOCC2)c1 | 3 | -21 | 2% | 2.2 | 0.9 | 12 | 5 | 0.7 | 2.4 | -5
Cc1cc(Oc2cc(N)cc([N+](=O)[O-])c2)ccc1Cl | 2 | 14 | nt | nt | -0.6 | nt | nt | nt | ? | 5
Cc1cc(C)cc(NC(=O)CN(Cc2ccccc2)S(C)(=O)=O)c1 | 1 | 2 | 12% | nt | 0.4 | nt | nt | nt | -2.2 | -1
Fc1ccc(-c2csc(-c3ccccn3)n2)cc1F | -14 | -11 | 3% | -0.9 | -2.7 | 5 | 6 | 1.0 | -1.1 | 1
CCOC(=O)Cc1csc(NC(=O)NC2(C(F)(F)F)Oc3cc(Cl)c(Cl)cc3O2)n1 | 2 | -6 | 6% | nt | 0.0 | nt | nt | nt | 7.1 | -2
COCCSc1ncnc2c1oc1nc3c(cc12)COC(C)(C)C3 | -1 | 3 | 14% | nt | 0.3 | -12 | -4 | 1.0 | 2.7 | -7
CC1=C(C(=O)N(C)C)C(c2ccc(N3CCOCC3)cc2)NC(=O)N1 (centres undefined) | 0 | -8 | -5% | -0.9 | -0.2 | 9 | 6 | 0.3 | 0.1 | -1

Complete entries, looked up by structure. Order of screens: Calb FLC, T cruzi repl, Vif A3G, AF4-AF9 inh, A1 inh, rRNA inh HTS, rRNA inh HTS OD600, rRNA inh HTS RFP, RanGTP-Impb inh, Beta apoptosis
Cc1cc(Oc2cc(N)cc([N+](=O)[O-])c2)ccc1Cl reads 2, 14, nt, nt, -0.6, nt, nt, nt, ?, 5
COCCSc1ncnc2c1oc1nc3c(cc12)COC(C)(C)C3 reads -1, 3, 14%, nt, 0.3, -12, -4, 1.0, 2.7, -7
O=C(Nc1ccc(S(=O)(=O)Nc2nccs2)cc1)c1ccc(N2C(=O)c3ccccc3C2=O)cc1 reads 4, -10, nt, -7.6, 0.4, 1, 8, -1.4, 1.7, -3
COc1cccc(N2CC(O)=C(c3nc4ccccc4c(=O)[nH]3)C2=N)c1 reads 32, -16, -2%, nt, 0.4, nt, nt, nt, 1.9, 27

Further results:
SMILES | Calb FLC | T cruzi repl | Vif A3G | AF4-AF9 inh | A1 inh | rRNA inh HTS | rRNA inh HTS OD600 | rRNA inh HTS RFP | RanGTP-Impb inh | Beta apoptosis
COC(=O)C1C(c2ccc(Cl)cc2)NC(c2ccc(Cl)cc2)C(C(=O)OC)S1(=O)=O (centres undefined) | 7 | 9 | 4% | -5.2 | -0.4 | -20 | -32 | -2.9 | -5.1 | 4
O=[N+]([O-])c1cccc(-c2cc(-c3cc(Br)ccc3O)[nH]n2)c1 | 84* | 9 | nt | -1.9 | 1.8 | 9 | 15 | 1.2 | -1.6 | nt
CC(C)C[C@H](NC(=O)c1nc[nH]c1C(=O)NCC(=O)OCc1ccccc1)C(=O)OC(C)(C)C | 10 | 20 | nt | -4.5 | -0.6 | 8 | -8 | 6.9 | 4.6 | -7
Cc1cccc(-c2nnc(SCC(=O)NCc3ccc4c(c3)OCO4)n2C)c1 | -24 | -7 | -1% | nt | 0.6 | nt | nt | nt | 0.1 | -5
CCCCc1nc2ccccc2c(NC(=O)CNC(C)(C)C)c1CCC | -3 | -9 | 21% | nt | -1.0 | nt | nt | nt | 4.4 | -6
Cc1cccc(Nc2nnc(SC/C(O)=C(\C#N)c3nc4ccccc4[nH]3)s2)c1 | 20 | -2 | 0% | nt | -0.8 | nt | nt | nt | ? | -9
CCOc1cccc2cc(C(=O)NCc3ccc(OC)cc3)c(=N)oc12 | -7 | 4 | 5% | -0.7 | 1.0 | 16 | 6 | 1.6 | 3.4 | -6
O=C(N/C(=C/c1cccs1)c1nc2ccccc2[nH]1)c1ccccc1 | 1 | -4 | -1% | nt | 1.0 | nt | nt | nt | 2.7 | 4
C=CCn1c(C)c(C(C)=O)c(N2CCN(c3ccccc3)CC2)nc1=S | 3 | 15 | 8.2µM* | nt | 0.1 | nt | nt | nt | 8.0 | -1
CC(=O)c1ccc(N2CCN(C(=O)CN(C)S(=O)(=O)c3cnc[nH]3)CC2)cc1 | 34 | -3 | 4% | -1.8 | -0.5 | 10 | 28 | -13 | 1.1 | -5
COc1ccc(NC(=O)CC2C(=O)N(c3ccc(OC)cc3)C(=O)N2Cc2ccc(OC)c(OC)c2)cc1 (centres undefined) | 4 | 2 | -9% | -0.3 | 0.0 | 8 | 10 | 8.8 | 0.8 | 3
CC(=O)c1sc(N/N=C\c2ccc(Br)cc2)nc1C | 2 | 20 | 16% | nt | -1.5 | nt | nt | nt | -1.4 | nt
CCOC(=O)/C(C(=O)Nc1ccccc1Br)=C1/NC(C)(C)Cc2ccccc21 | -5 | 2 | -6% | nt | 2.0 | nt | nt | nt | -0.9 | -2
NS(=O)(=O)c1ccc(CNC(=O)c2cnccn2)cc1 | -3 | -7 | 17% | 0.8 | 0.2 | 13 | 11 | -1.4 | -0.4 | -2

Bioassay records from PubChem.
